Source: PubChem
TRPML1 agonist: human mucolipin-1 channel agonism | activation, % (test concentration not listed) | Q9GZU1 | TRPML1-expressing cells, Ca2+ dye fluorescence, FDSS; host cell line not named in the record; reference of the full effect not given here | hit rate 0.12% among 410,000; in the data active = activation above about 50%; inconclusive = about 30% to 50%; inactive = below about 30%; further: 0% is about no effect; the text of the record puts the active cut at 80%
Target sequence (Q9GZU1 whole entry, looked up): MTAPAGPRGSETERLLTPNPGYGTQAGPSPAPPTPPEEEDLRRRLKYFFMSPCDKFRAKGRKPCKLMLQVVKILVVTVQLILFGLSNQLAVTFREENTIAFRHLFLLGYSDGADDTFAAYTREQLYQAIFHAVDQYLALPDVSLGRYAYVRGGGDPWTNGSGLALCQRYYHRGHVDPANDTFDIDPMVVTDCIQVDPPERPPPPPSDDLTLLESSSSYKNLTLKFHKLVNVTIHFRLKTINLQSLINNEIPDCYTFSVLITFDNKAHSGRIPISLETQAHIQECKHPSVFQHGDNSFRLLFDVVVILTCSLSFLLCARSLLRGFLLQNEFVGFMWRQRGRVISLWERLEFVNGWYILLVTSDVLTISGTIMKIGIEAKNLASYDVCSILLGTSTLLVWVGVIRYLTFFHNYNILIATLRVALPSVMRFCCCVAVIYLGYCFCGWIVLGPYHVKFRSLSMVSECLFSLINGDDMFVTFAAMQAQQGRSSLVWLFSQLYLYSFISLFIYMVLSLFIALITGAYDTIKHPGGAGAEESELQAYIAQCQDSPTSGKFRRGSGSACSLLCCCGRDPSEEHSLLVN
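Tetracycline-induced TRPML1-DL cells are seeded and incubated overnight before loading with a no-wash Ca2+ dye and quencher. Agonist activity is taken from the 110 s fluorescence read following compound pin-transfer on an FDSS, before EC80 54-4 challenge.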
PINK1 expr mod: PINK1 expression modulation; PINK1 immunofluorescence, high-content cytometry, 24 h; hit rate 0.2% among 410,000; AID 624263; Potency, µM (titrated, usually from 76.6 µM), inactives show top-dose activation (PINK1 increase), hits mostly activators; active = well fitted activation curve with a large enough effect; inconclusive = small, poorly fitted or top-dose-only effect; inactive = flat fitted curve, though single readings scatter; cell line not stated here;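 further: potency means the concentration at half of the fitted maximal effect; % of control where 0% means no effect; nearly all actives have a fitted effect of over 65% in size; a mitochondrial uncoupler was the plate control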
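A stable cell line was treated with compounds at 5 concentrations for 24 hours, with CCCP as control. PINK1 levels and mitochondrial localization were measured by immunofluorescence with mitochondrial, cell and nuclear markers after fixation, read by laser-scanning cytometry.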
D2 ag: activates the human D2 dopamine receptor; P14416; DiscoveRx PathHunter D2 beta-arrestin, luminescence, 90 min; 100% = 57 uM dopamine signal; hit rate 0.084% among 360,000; activation, % (concentration not given with the values); in the data active = activation above about 40%; inconclusive = about 15% to 40%; inactive = below about 15%; further: compound concentration not given in the record; the text of the record calls up to 30% inactive
Target sequence (P14416 whole entry, looked up): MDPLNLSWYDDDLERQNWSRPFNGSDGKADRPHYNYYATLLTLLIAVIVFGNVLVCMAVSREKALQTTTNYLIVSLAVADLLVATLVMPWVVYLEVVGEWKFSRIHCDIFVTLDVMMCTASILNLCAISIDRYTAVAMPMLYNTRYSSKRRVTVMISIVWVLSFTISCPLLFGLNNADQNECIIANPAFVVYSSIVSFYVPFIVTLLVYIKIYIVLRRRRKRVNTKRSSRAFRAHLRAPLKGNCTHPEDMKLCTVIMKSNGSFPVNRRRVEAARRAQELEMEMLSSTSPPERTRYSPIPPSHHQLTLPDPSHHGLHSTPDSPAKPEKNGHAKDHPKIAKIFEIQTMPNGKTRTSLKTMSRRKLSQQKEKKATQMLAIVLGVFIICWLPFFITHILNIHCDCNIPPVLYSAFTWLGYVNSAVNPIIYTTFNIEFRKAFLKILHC
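DiscoveRx PathHunter D2 beta-arrestin cells (2,100/well) attached overnight, then compound-stimulated 90 min at 37 C in HBSS/10 mM HEPES/0.1% Tween-20 buffer; beta-galactosidase complementation read by luminescence after 1 h at ambient temperature. Dopamine 57 uM final (EC100) as control.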
D2 potentiator: human D2 receptor positive allosteric modulation. P14416. DiscoveRx D2 beta-arrestin cells, luminescence, 90 min; 100% = 57 uM dopamine signal. potentiation, % (test concentration not listed). hit rate 0.23% among 360,000; active = potentiation of 50% or more; inconclusive = 30% to 50%; inactive = 30% or less;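 further: compound concentration not given in the record; tested on top of an EC20 dose of dopamine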
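PathHunter D2 cells, attached overnight at 37 deg C, received compound in DMSO plus dopamine at EC20 (50 nM final) for 90 min at 37 deg C. Beta-arrestin recruitment was read as luminescence after 1 h with detection reagent at ambient temperature.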
TRPML1 inh: blocks the human TRPML1 channel; TRPML1-inducible cells, Ca2+ dye fluorescence, FDSS; active compounds read low; inhibition of EC80 agonist-evoked calcium signal; activity change, negative = inhibition, % (test concentration not listed); hit rate 0.02% among 390,000; AID 624415; in the data active means activity change below about -50%; inconclusive means about -30% to -50%; inactive means above about -30%;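 further: stimulus is agonist 54-4 at its EC80 concentration; on the % scale 0 is the no-effect control and ±100 the full control effect; compound concentration not given in the record; the text of the record puts the active cut at -80%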
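Calcium fluorescence in TRPML1-DL cells induced overnight with Tet: a 110 s read after compound pin addition, then a 110 s antagonist read after challenge with 54-4 at 4 uM final (EC80).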
Six1-Eya2 blk: blocks human Six1 binding to Eya2; AlphaScreen GST-Six1/His-Eya2 binding, biochemical; active compounds read low; control for the full effect not named in the record; activity change, % (no concentration beside the values); Q15475+O00167; hit rate 0.56% among 360,000; in the data active = activity change below about -65%; inconclusive = about -30% to -65%; inactive = above about -30%; further: on the % scale 0 is the no-effect control and ±100 the full control effect
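Homogeneous AlphaScreen proximity assay pairing GST-Six1 with His-tagged Eya2 (added as 5X mix: 250 nM and 500 nM) in 50 mM Tris pH 8.0, 300 mM NaCl, 1 mM TCEP. Glutathione donor and nickel acceptor beads; 1 h, 37 °C, dark.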
Numbers without * were called inactive; ? = inconclusive; nt = no result given; & = joins results of further samples; [ ] = dose if it differs, or a comment.

SMILES | TRPML1 agonist | PINK1 expr mod | D2 ag | D2 potentiator | TRPML1 inh | Six1-Eya2 blk
O=C(Nc1ccn(C2CC(OC(=O)c3ccccc3)C(CO)O2)c(=O)n1)c1ccccc1 (configuration not stated) | -1.5 | 0.9% | 2.2 | 20 | 2 | -3
O=C1CN(C(=O)COC(=O)CCS(=O)(=O)c2ccccc2)c2ccccc2N1 | 0.5 | -1.0% | -6.0 | -30 | -10 | 0
CCOC(=O)c1c(C2CC2)csc1NC(=O)COC(=O)c1cnc(Cl)c(Cl)c1 | -0.3 | 3.9% | -0.3 | -12 | -6 | 2
O=C(NCc1ccccc1Cl)C(=O)NCC1OCCN1S(=O)(=O)c1cccs1 (configuration not stated) | 0.8 | 2.5% | -0.8 | 0 | 11 | 3
CCOc1cc(-c2nc3c(c(CC)nn3-c3ccccc3)c3cc(OC)c(OC)cc23)ccc1O | -0.8 | 3.3% | nt | nt | 8 | nt
Cc1ccc(-n2c(CCC(=O)O)ccc2-c2cccs2)cc1C | 0.4&-0.8 | 2.2%&-0.2% | -2.2 | -3 | -2&7 | -9
CC1(C)CC(=O)C(C=NCCN2CCNC2=O)=C(O)C1 | -0.3 | 1.6% | -2.2 | -1 | -15 | 3
CCOc1ccccc1C(=O)N[C@H](C(=O)OCc1cc([N+](=O)[O-])cc2c1OCOC2)C(C)C | 0.5 | -2.1% | -5.2 | -27 | 30 | -14
COc1cc2c(cc1NC(=O)CSc1ccc(C)cc1)oc1ccccc12 | 3.9 | 2.0%[38.3 µM] | -1.3 | -9 | 7 | 5
CC(=O)N/N=C(\C)CC(=O)Nc1cccc(C(F)(F)F)c1 | 1.0 | 1.8% | 3.7 | -6 | -7 | -2
COCc1cc(C)nc(SCC(=O)Nc2cccc3cccnc23)c1C#N | 1.4 | 11% | -3.0 | -3 | -12 | 0
COc1ccc(C(=S)N2CCOCC2)cc1OC(=O)c1ccc([N+](=O)[O-])cc1 | -0.1 | 2.1% | 7.7 | 14 | 7 | -9
O=C(NN1S(=O)(=O)c2ccccc2S1(=O)=O)c1ccc(Br)cc1 | -0.2 | 0.5% | -6.3 | -4 | 1 | 7
CC(C)(C)c1ccc(SCCc2cccnc2)cc1 | 0.6 | 12% | -1.8 | -20 | -3 | 31
CCn1c(SCC(=O)N/N=C/C(C)=C\c2ccco2)nnc1-c1ccccc1 | 0.0 | 9.3% | 5.2 | -3 | 21 | -15
COc1ccc(/C=N/NC(=S)N[C@H]2CC3CCC2C3)cc1 (some centres not stated) | 3.0 | 4.2% | -2.3 | -15 | 5 | -2
CC(Sc1ccc(Cl)cc1)C(=O)NCc1ccc2c(c1)OCO2 (configuration not stated) | 1.9 | 7.5% | 0.1 | -5 | 5 | 0
FC(F)(F)c1ccc2c(c1)N1CCCC1CN2 (configuration not stated) | 0.1 | 0.2% | -3.8 | -2 | 12 | 0
CCCSCCCNC(=O)Cn1c(=O)c2cccn2c2ccccc21 | -0.2 | 3.6% | 0.4 | -3 | -4 | -5
Fc1ccc(Cn2nnc(-c3ccc(CN4CCOCC4)cc3)n2)cc1 | 0.3 | -3.1% | -3.1 | -31 | 29 | -1
COc1cc(NC(=O)CSc2nc(C)cc(C)n2)cc(OC)c1OC | -0.5 | 11% | -0.3 | -10 | -8 | -5
O=C1C=C(NC2CCCCC2)CCC1 | -0.1 | -0.4% | -2.9 | -4 | 2 | 2
Cc1cc(C)nc(-n2nc(C)c3c2NC(=O)CC3c2cc(F)ccc2F)n1 (configuration not stated) | -0.7 | -0.7% | nt | nt | -12 | nt
c1ccc2c(c1)OCCOCCOc1ccccc1OCCOCCO2 | 0.0 | 4.1% | -3.3 | 12 | 21 | 12
BrC(=C\c1ccccc1)/C=N/Nc1ccc2nncn2n1 | 0.7 | 6.0% | -0.2 | -4 | -5 | -19
CCN1CCN(CCn2c(=S)[nH]c3ccccc3c2=O)CC1 | 1.1 | -1.1% | -3.1 | -34 | 3 | 2
C[C@H](NC(=O)c1nc[nH]c1C(=O)N[C@@H](CCCCNC(=O)OC(C)(C)C)C(=O)OC(C)(C)C)c1ccccc1 | 0.4 | 0.0% | 2.5 | -5 | 26 | -4
O=C(Nc1ccc2snnc2c1)N1CCN(c2ccccc2)CC1 | -0.1 | 2.0% | 1.6 | -4 | 6 | -3
O=C(NCc1ccccc1)c1ccccc1-c1nc2ccccc2[nH]1 | 0.0 | 3.1% | 1.5 | -3 | -5 | 1
CCc1ccc(NC(=O)C(CC)n2nnc(C(=O)OC)c2C(=O)OC)cc1 (configuration not stated) | 0.1 | -0.4% | nt | nt | 1 | nt
CC1CCc2ccc(F)cc2N1S(=O)(=O)c1cccs1 (configuration not stated) | 3.4 | ? | -1.3 | -1 | 80 | 7
COc1ccc(C2=CC(=O)C[C@H](c3ccc(Cl)cc3)C2)cn1 | 1.1 | 0.0% | 0.1 | -1 | 9 | 10
CC1CCC/C(=C\Nc2ccc(O)cc2)C1=O (configuration not stated) | 0.5 | -1.8% | 13 | 54* | 6 | -2
O=C(COC(=O)c1cnc(Cl)c(Cl)c1)NCCC1=CCCCC1 | 2.4 | 6.9% | 3.7 | 2 | 5 | -3
Cc1sc2nc(COC(=O)c3ccc(Cl)c(N)c3)[nH]c(=O)c2c1C | 3.3 | -1.2% | -2.3 | 3 | 0 | 9
COc1ccc(CC(=O)NC2CCN(Cc3nnnn3C(C)(C)C)CC2)cc1OC | -0.3 | 4.9% | -2.2 | -14 | 3 | -3
COc1ccc(NC(=O)COc2ccc(CNCCCN3CCOCC3)cc2OC)cc1 | 2.2 | 1.6%[38.3 µM] | 1.9 | -8 | 6 | 3
COCCCNC(=O)CCc1nnc2ccc(N3CCC(C)CC3)nn12 | 1.0 | 1.2% | 6.1 | -10 | 66 | -1
NNC(=O)c1ccc(Cn2cc(Cl)cn2)cc1 | 0.6 | 8.1% | -2.4 | -9 | -12 | 8
S=c1[nH]nc(COc2ccc(Cl)cc2)n1C1CCCCC1 | 1.8 | ? | 5.0 | -16 | 35 | -7
CC[C@]12c3[nH]c4ccccc4c3CCN1C(=O)C(CC(=O)NCCc1ccccn1)C[C@@H]2C(=O)N1CCN(C(=O)C2CC2)CC1 (some centres not stated) | -0.2 | 0.0% | 0.3 | nt | -11 | 0
O=C1N=c2ccccc2=C1c1sc(=S)n(NC(=O)c2cccc(O)c2)c1O | -0.2 | 3.4% | 10 | -3 | 35 | -24
NC(=O)Cn1c(=O)n(CC(=O)N2CCCCC2)c(=O)c2sccc21 | -0.1 | -0.3% | 0.5 | -7 | -14 | 2
COc1cc(CC(=O)OCC(=O)Nc2cccc([N+](=O)[O-])c2)cc(OC)c1OC | 0.6 | 1.4% | 1.3 | -5 | -6 | 25
O=C(COc1ccc2c3c(c(=O)oc2c1)CCCC3)NCCCn1ccnc1 | 0.2 | -0.8% | -5.4 | -10 | -2 | -19
Cc1cc(C)n(-c2nc3ccccc3nc2Nc2ccc(CC(=O)O)cc2)n1 | -0.6 | -0.8% | -1.2 | -3 | 12 | 7
CCc1cc(=O)oc2cc(OC(C)C(=O)NCCCn3ccnc3)ccc12 (configuration not stated) | -0.8 | -0.7% | -1.2 | -4 | -8 | 1
CN1CCc2cc3c(c4c2[C@H]1[C@H](O)c1ccccc1-4)OCO3 | 4.1 | -1.5% | 3.0 | 8 | 23 | -29
COc1ccc2cc(C(=O)C3CCCN(C(=O)/C=C/c4ccccn4)C3)ccc2c1 (configuration not stated) | 2.3 | 0.0% | -2.2 | 2 | -19 | 13
CCc1nc(C)cn1S(=O)(=O)c1ccc2c(c1)OCCO2 | -0.1 | -0.8% | -2.6 | -2 | -1 | 9

Quoted at random: 3 records from the list.
SMILES | TRPML1 agonist | PINK1 expr mod | D2 ag | D2 potentiator | TRPML1 inh | Six1-Eya2 blk
COc1cc(CC(=O)OCC(=O)Nc2cccc([N+](=O)[O-])c2)cc(OC)c1OC | 0.6 | 1.4% | 1.3 | -5 | -6 | 25
Cc1cc(C)n(-c2nc3ccccc3nc2Nc2ccc(CC(=O)O)cc2)n1 | -0.6 | -0.8% | -1.2 | -3 | 12 | 7
CCc1nc(C)cn1S(=O)(=O)c1ccc2c(c1)OCCO2 | -0.1 | -0.8% | -2.6 | -2 | -1 | 9

Carrying on:
SMILES | TRPML1 agonist | PINK1 expr mod | D2 ag | D2 potentiator | TRPML1 inh | Six1-Eya2 blk
CC(=O)c1ccccc1NS(=O)(=O)c1cc2c(cc1C)NC(=O)CO2 | -0.1 | 2.4% | nt | nt | -16 | nt
CC(C)(C)NC(=O)COC(=O)CCC(=O)c1ccc(F)cc1 | 0.8 | 4.0% | -4.6 | 2 | 24 | -3
Cc1ccc(OCCOC(=O)Cn2nc(C)c([N+](=O)[O-])c2C)cc1 | 0.4 | 3.8% | -6.3 | -1 | 6 | 6
O=C(Cn1nc(C(=O)O)c2ccccc2c1=O)Nc1cccc(S(=O)(=O)N2CCCC2)c1 | 1.6 | -1.0% | 0.1 | -9 | 5 | -25
CCS(=O)(=O)c1ccc2oc(SCC(=O)Nc3ccc(OC)cc3)nc2c1 | 1.3 | -0.7% | 1.7 | -14 | -23 | -3
O=C(Nc1ccc(N2CCOCC2)cc1N1CCOCC1)c1cccc([N+](=O)[O-])c1 | -0.6 | -0.3% | -3.9 | -11 | -2 | -3
Cc1ccc(S(=O)(=O)NCc2ccc(C(=O)NCCCN3CCC(Cc4ccccc4)CC3)cc2)cc1 | 0.1 | 1.5% | -6.3 | -16 | -19 | 2
O=C(Nc1ccc2c(c1)C(=O)NC2=O)c1cccc(C(F)(F)F)c1 | -1.1 | -0.4% | -6.6 | -4 | -5 | 0
CCOC(=O)c1sc(NC(=O)CCN2CCCCCC2)c(C(=O)OCC)c1C | -0.4 | 0.7% | -6.5 | -11 | 1 | 1
COc1ccc(CCNc2nc(-c3ccc(O)cc3)cs2)cc1OC | 1.0 | -0.4% | 1.0 | 3 | -3 | -19
O=C(NNC(=O)c1ccc(-n2cncn2)c([N+](=O)[O-])c1)c1ccc(Cl)cc1 | -0.6 | 3.1% | -5.4 | 8 | 0 | 15
CC(C)Oc1ccc(OCCNC2CCCC2)cc1 | -0.9 | -0.8% | -3.0 | -19 | -3 | -1
COc1cc(C(=O)NCC2CCCO2)ccc1OCc1ccccc1Cl (configuration not stated) | 2.4 | 5.8% | 5.1 | -3 | -6 | 7
CC1CCN(S(=O)(=O)c2ccc3c(c2)N(C)C(=O)CC(=O)N3C)CC1 | 1.0&-0.3 | -2.8%&-0.3% | -1.2 | -3 | 9&-7 | -2
Cc1ccc(S(=O)(=O)N2CCOCC2)cc1C(=O)OCC(=O)N1CCc2ccccc2C1 | -1.2 | 0.9% | 0.0 | -6 | -7 | -1
Cc1cccc2cc(C#N)c(NCCNC(=O)NC3CCCCC3)nc12 | 0.4 | 12% | -2.3 | 7 | 0 | 4
COc1ccc(/C(O)=C2\C(=O)C(=O)N(c3cc(C)on3)C2c2ccccc2OC)cc1C (configuration not stated) | 1.7 | -0.2% | 0.8 | 0 | 49 | -5
